SARS PLpro yeast: qHTS of Yeast-based Assay for SARS-CoV PLP | S. cerevisiae expressing SARS-CoV PLpro, growth rescue; control for the full effect not named in the record | Potency, µM (series often up to 32.9 µM), inactives show at the top dose activity, positive = growth rescue | 330,000 tested, 0.19% active; also: 0% is about no effect; nearly all actives have a fitted effect of over 55% in size; growth read by luminescence after 48 h
MARV entry inh: qHTS for inhibitors of binding or entry into cells for Marburg Virus | Marburg virus pseudotyped entry inhibition, cell reporter; control for the full effect not named in the record; about a third of the inactives were read at about 46 µM | Potency, µM (series often up to 37.8 µM), inactives show top-dose activity change, negative = inhibition, usual class: inhibitors | 300,000 tested, 1.8% active | AID 540276, 2011; active = well fitted inhibition curve with a large enough effect; inconclusive = small, poorly fitted or top-dose-only effect, or effect the other way; inactive = flat fitted curve, though single readings scatter; tested in HEK293 cells; about a fifth of its hits are not listed in these tables; also: % is scaled to controls: 0 for no effect and ±100 for the full control effect; luciferase read-out
2A StopGo: High Throughput Screening for Foot and Mouth Disease Virus Antivirals. human cells with a luciferase reporter of 2A StopGo recoding; control for the full effect not named in the record. AID 1159524, 2015. Potency, µM (series often up to 57.9 µM), for the others: at the highest dose signal change, negative = less light. 410,000 tested, 1.2% active; active = well fitted falling curve with a large enough effect; inconclusive = small, poorly fitted or top-dose-only effect; inactive = no such curve, though single readings can be large or run the other way; tested in HEK293T cells; also: % is scaled to controls: 0 for no effect and ±100 for the full control effect; nearly all actives have a fitted effect of over 45% in size; luciferase light after 4 h
NS1 function inh: qHTS Assay for Inhibitors of Influenza NS1 Protein Function | Potency, µM (highest dose often 46.1 µM), inactives show at the top dose activity, positive = more growth | 270,000 tested, 0.4% active | AID 2326, 2010 | S. cerevisiae slowed by influenza A NS1, growth recovery by OD600; also: actives are rising curves; nearly all actives have a fitted effect of over 50% in size
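Read-out: OD600 growth recovery of NS1-expressing budding yeast. Cells grown overnight at 30C in -URA glucose medium, washed, resuspended and diluted 1:100 in 2% galactose assay medium, pH 6.0. Same strain lacking NS1 served as positive control.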
LASV entry inh: qHTS for Inhibitors of binding or entry into cells for Lassa Virus. 300,000 tested, 1.2% active. Lassa virus pseudotype entry inhibition, cell reporter; control for the full effect not named in the record. Potency, µM (titrated, usually from 37.9 µM), for inactives: top-dose activity change, negative = inhibition, actives largely listed as inhibitors; active means well fitted inhibition curve with a large enough effect; inconclusive means small, poorly fitted or top-dose-only effect, or effect the other way; inactive means flat fitted curve, though single readings scatter; tested in HEK293 cells; also: % is scaled to controls: 0 for no effect and ±100 for the full control effect; nearly all actives have a fitted effect of over 50% in size; luciferase read-out
RE007 growth inh: qHTS Assay for Inhibitors of the HIV-1 protein Vpr. S. pombe RE007 Vpr strain, BacTiter-Glo ATP luminescence, 24 h; control for the full effect not named in the record. Potency, µM (titrated, usually from 92.2 µM), without a hit: top-dose activity change, negative = less growth. 360,000 tested, 0.21% active. AID 651644, 2012; active = well fitted falling curve with a large enough effect; inconclusive = small, poorly fitted or top-dose-only effect; inactive = no such curve, though single readings can be large or run the other way;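 also: % is scaled to controls: 0 for no effect and ±100 for the full control effect; nearly all actives have a fitted effect of over 50% in size; the assay follows cell death caused by Vpr and the record does not say whether a fall means rescue or toxicity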
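Fission yeast strain RE007, carrying one chromosomally integrated HIV-1 vpr copy, was seeded at OD 0.01 in PMG+AL medium with 23 nL pinned compound. After 24 h at 30 °C and 99% humidity, viability was read by BacTiter-Glo luminescence.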
Cruzain Triton: qHTS Assay for Promiscuous and Specific Inhibitors of Cruzain (with detergent). 200,000 tested, 0.43% active. Potency, µM, inactives show max response, negative = inhibition, usual class: inhibitors. purified cruzain, Z-FR-AMC fluorescence, 0.01% Triton. Cruzipain (Trypanosoma cruzi), P25779; active = well fitted curve in the direction sought with a large enough effect; inconclusive = small, poorly fitted or top-dose-only effect, or another doubt; inactive = no such curve, though single readings can be large; an effect the other way counts as inactive or inconclusive;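 also: plate controls were neutral wells for no effect and buffer without enzyme for full effect; nearly all actives have a fitted effect of over 40% in size; top concentration of the series not given in the record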
Target sequence (P25779 123-467 limits assumed): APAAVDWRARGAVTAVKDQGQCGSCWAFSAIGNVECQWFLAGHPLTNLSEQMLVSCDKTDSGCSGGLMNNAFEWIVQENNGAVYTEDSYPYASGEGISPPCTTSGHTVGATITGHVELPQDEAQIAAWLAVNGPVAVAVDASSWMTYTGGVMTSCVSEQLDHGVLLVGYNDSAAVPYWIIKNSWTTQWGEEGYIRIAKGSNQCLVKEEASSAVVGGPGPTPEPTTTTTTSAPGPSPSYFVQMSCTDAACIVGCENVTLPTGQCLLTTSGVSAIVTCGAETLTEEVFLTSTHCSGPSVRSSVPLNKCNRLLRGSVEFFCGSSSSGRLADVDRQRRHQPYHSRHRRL
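Detergent-containing arm of a paired screen for aggregation-based inhibition: 0.01% Triton X-100 present. Cruzain at 1.5 nM cleaved 2 uM Z-FR-AMC at pH 5.5 with 5 mM DTT; AMC fluorescence gain over 60 s measured activity.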
Cruzain noTriton: qHTS Assay for Promiscuous and Specific Inhibitors of Cruzain (without detergent); 200,000 tested, 2.3% active; Potency, µM, for inactives: max response, negative = inhibition, usual class: inhibitors; purified cruzain, Z-FR-AMC fluorescence, no detergent; AID 1476, 2009; active = well fitted curve in the direction sought with a large enough effect; inconclusive = small, poorly fitted or top-dose-only effect, or another doubt; inactive = no such curve, though single readings can be large; an effect the other way counts as inactive or inconclusive;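 also: plate controls were enzyme without inhibitor for no effect and buffer without enzyme for full effect; nearly all actives have a fitted effect of over 40% in size; top concentration of the series not given in the record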
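Purified cruzain at 1.5 nM, pre-incubated 15 min with compound at room temperature in 100 mM sodium acetate pH 5.5, 5 mM DTT, 0.00005% Triton X-100. Reaction started with 2 uM Z-FR-AMC; AMC fluorescence increase over 60 s gives rate.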
* hit, by the source's call; ? = inconclusive; . = no result given; & = joins results of further samples; [ ] = remark or other dose. Unless noted, calls follow the shape of the dose curve; as a rule, active means well fitted rising curve with a large enough effect; inconclusive means small, poorly fitted or top-dose-only effect; inactive means no such curve, though single readings can be large or run the other way. Potency is read from the fitted curve at half-maximal effect.

Fields: SARS PLpro yeast	MARV entry inh	2A StopGo	NS1 function inh	LASV entry inh	RE007 growth inh	Cruzain Triton	Cruzain noTriton
Cc1ccccc1CNC(=O)CC1C(=O)NCCN1CC1CCCCC1 (stereo not drawn)
  0%	-28%[46.1 µM]	21%	5%	0%	-6%	.	.
CCCC(=O)Nc1ccc(C(=O)NNC(=O)c2cccc([N+](=O)[O-])c2)cc1
  9%	.	3%	-2%	14%	13%	.	.
COc1ccc(S(=O)(=O)N2CCC(C)CC2)cc1Br
  -19%	-20%[46.1 µM]	-8%	-16%	0%	?	-6.1%	0%
Cc1nc(S/C(=C/c2ccc(OCc3ccc(C(=O)O)cc3)cc2)C(=O)O)n[nH]1
  -1%	24%[46.1 µM]	4%	.	9%	5%	.	.
COc1c([N+](=O)[O-])c(=O)n(-c2ccccc2)c2ccccc12
  22%	-10%	-19%	2%	2%	1%	0.3%	1%
COc1ccc(-c2csc(NC(=O)c3nc(-c4ccccc4)oc3C)n2)cc1
  7%	9%	6%	-2%	-18%	-1%	4.7%	7.9µM*
CCCN1C2CCCC1CC(NC(=O)c1cccc([N+](=O)[O-])c1)C2 (stereo not drawn)
  6%	-7%	-3%	0%	?	-25%	.	.
CCCn1nc(C(=O)OCC(=O)NC(C)c2ccccc2)c2ccccc2c1=O (stereo not drawn)
  -2%	-1%[46.1 µM]	-15%	.	7%	-6%	.	.
COc1cc(CN2CCNC(=O)C2CC(=O)N(C)CCC2CCOCC2)cc(OC)c1 (stereo not drawn)
  5%	.	-13%	19%	.	-7%	.	.
O=C(CC1C(=O)OCC2CCCCN21)Nc1ccccc1C(F)(F)F (stereo not drawn)
  2%	?	5%	.	0%	-11%	.	.
Cc1cc(N2C(=O)C(O)=C(C(=O)c3cccs3)C2c2ccccc2)no1 (stereo not drawn)
  -2%	?	56%[activator]	10%	4%	-8%	-2.1%	0%
COc1ccc(NC(=S)Nc2ccc(N)c([N+](=O)[O-])c2)cc1
  -15%	-6%	47%[activator]	2%	0%	8%	-9.9%	?
CCOc1ccc(NC(=O)[C@@H](NC(=O)c2ccccc2Br)C(C)C)cc1
  8%	14%	-6%	5%	5%	2%	2.8%	-8%
COC(=O)c1ccc2c(c1)N(CC(=O)Nc1ccc(C)cc1Cl)C(=O)c1ccccc1S2
  .	.	-16%	.	.	.	-3.6%	2%
CC(Oc1ccc2c(-c3ccccc3)cc(=O)oc2c1)C(=O)NCCCN1CCOCC1 (stereo not drawn)
  28%	-1%[46.1 µM]	-12%	-6%	-8%[46.1 µM]	0%	.	.

Some of these compounds in order of number of heavy atoms, highest first:
Fields: SARS PLpro yeast	MARV entry inh	2A StopGo	NS1 function inh	LASV entry inh	RE007 growth inh	Cruzain Triton	Cruzain noTriton
COC(=O)c1ccc2c(c1)N(CC(=O)Nc1ccc(C)cc1Cl)C(=O)c1ccccc1S2
  .	.	-16%	.	.	.	-3.6%	2%
COc1ccc(-c2csc(NC(=O)c3nc(-c4ccccc4)oc3C)n2)cc1
  7%	9%	6%	-2%	-18%	-1%	4.7%	7.9µM*
CCCC(=O)Nc1ccc(C(=O)NNC(=O)c2cccc([N+](=O)[O-])c2)cc1
  9%	.	3%	-2%	14%	13%	.	.
COc1c([N+](=O)[O-])c(=O)n(-c2ccccc2)c2ccccc12
  22%	-10%	-19%	2%	2%	1%	0.3%	1%
COc1ccc(S(=O)(=O)N2CCC(C)CC2)cc1Br
  -19%	-20%[46.1 µM]	-8%	-16%	0%	?	-6.1%	0%

(next part)
Fields: SARS PLpro yeast	MARV entry inh	2A StopGo	NS1 function inh	LASV entry inh	RE007 growth inh	Cruzain Triton	Cruzain noTriton
COc1cccc(=O)c2c(C)n(C)c(C)c12
  0%	4%	-5%	?	-3%	-5%	5.1%	-10%
CC(=C/c1ccccc1)/C=N/NC(=O)c1cnccn1
  -7%	?	17%	-11%	?	-17%	-4.9%	6%
O=C(C(=O)N1CCN(c2ccccc2Cl)CC1)c1c[nH]c2ccccc12
  -10%	.	14%	-95%	.	5%	.	.
O=C1N=C(N2CCCCC2)S/C1=C\c1ccc(Cl)cc1
  -2%	.	19%	-7%	.	3%	.	.
COc1ccc(C(=O)NC(=S)Nc2ccc(CN3CCOCC3)cc2)cc1Cl
  5%	.	?	-6%	.	-5%	.	.
COc1ccccc1C1CCN(C(=O)c2ccco2)CC1
  -6%	-4%[14.2 µM]	-6%	-64%	-5%	-1%	.	.
CCN(CC)S(=O)(=O)c1ccc(NC(=O)COC(=O)c2c[nH]c(=O)[nH]c2=O)cc1
  28%	.	-13%	8%	.	-15%	.	.
O=C(Nc1nc2ccccc2[nH]1)c1ccc(Cl)cc1
  1%	?	-71%	-31%	2.5µM*	?	.	.
CN(C)/C=N/c1nc(Sc2ccc(C(F)(F)F)cc2[N+](=O)[O-])n[nH]1
  0%	-3%	-18%	-1%	-5%	1%	.	.
COc1ccc(CN2CCC(CNS(=O)(=O)c3cccc(C(F)(F)F)c3)CC2)cc1
  3%	?	-19%	-6%	.	-13%	.	.
NC(=O)C1CCN(C(c2ccccc2Cl)c2nnnn2Cc2ccc3c(c2)OCO3)CC1 (stereo not drawn)
  3%	0%&-9%	27%	-7%	-1%	-1%	3.8%	22%
COC(=O)CSc1ccnc2cc(Cl)ccc12
  0%	4%[46.1 µM]	-11%	-5%	-10%	14%	.	.
O=C(CSc1nnc(-c2ccco2)n1-c1ccccc1)NCc1ccco1
  1%	-23%	-12%	21%	2%	9%	1.8%	-1%
O=C(Nc1ccccc1N1CCCC1)c1ccc(Cl)cc1Cl
  -1%	?	-8%	-9%	0%[46.1 µM]	-12%	.	.
COc1ccc2c(c1)C(C1C(=O)CCCC1=O)c1ccccc1O2 (stereo not drawn)
  -2%	11%	22%	14%	10%	2%	1.5%	3%
CCOC(=O)c1c(C)c(C(=O)NCc2cccs2)c(C)n1C
  -1%	?	11%	-50%	?	0%	8.0%	15%
CC(=O)Nc1ccc(-c2csc(NC(C)c3ccccc3)n2)cc1 (stereo not drawn)
  -3%	?	22%	9%	3%[46.1 µM]	-15%	.	.
Cc1cccnc1NC(=O)Cn1nc([N+](=O)[O-])cc1C
  1%	?	11%	.	17%	-11%	.	.
CCOc1ccc(NC(=O)CN(C)C(=O)Cc2c[nH]c3ccccc23)cc1OCC
  1%	27%	2%	.	5%	-17%	.	.
CCN(CC(=O)O)S(=O)(=O)c1cc(Cl)ccc1Cl
  2%	?	-9%	5%	8%	0%	-1.7%	-2%
Cc1ccccc1OCCn1c(=N)n(C(C)C)c2ccccc21
  .	?	?	.	-24%[46.1 µM]	.	-0.9%	-4%
COc1ccc(C2N(S(=O)(=O)c3ccccc3)CCN2S(=O)(=O)c2ccc(C)cc2)cc1 (stereo not drawn)
  ?	?	-16%	13%	-17%	-4%	3.2%	-22%
COc1ccc(NC(=O)Cc2noc3ccc(C)cc23)cc1Cl
  .	.	-21%	.	-2%[46.1 µM]	.	?	25µM*
CCn1c(CNC(=O)Cc2ccc(OC)cc2)nnc1SCC(=O)c1ccccc1
  -2%	1%[46.1 µM]	3%	-1%	19%	-18%	.	.
CCN(Cc1ccccc1)C(=O)COC(=O)c1n[nH]c2ccccc12
  12%	10%	-9%	5%	-7%	15%	-3.9%	0%
CCOc1ccc(C2C(C(=O)c3ccco3)=C(O)C(=O)N2CCN2CCOCC2)cc1 (stereo not drawn)
  -5%	.	55%[activator]	6%	.	2%	.	.
Cc1ccc(CNC(=O)C2CC3Cn4c(nc5cc(C)c(C)cc54)C3N2C)o1 (stereo not drawn)
  0%	.	-17%	4%	.	-11%	.	.
COc1ccc(NC2CC(=O)NC2=O)cc1 (stereo not drawn)
  -4%	?	-14%	-9%	0%	20%	5.4%	5%
O=C(CN1C(=O)COc2ccc(S(=O)(=O)N3CCCCC3)cc21)NCc1ccc(F)cc1
  4%	-16%&-16%[46.1 µM]	-3%&-16%	-2%	-16%&5%[46.1 µM]	-9%	-0.5%	-9%
Clc1cccc(CN2CCc3c([nH]c4ccccc34)C2)c1
  3%	8.9µM*	-17%	3%	?	-24%	.	.
O=C(CSC1=NS(=O)(=O)c2cc(F)ccc2N1)Nc1ccccc1
  -2%	12%	11%	.	-5%	6%	.	.
Cc1ccc(N(C(C)C(=O)N2CCCC2)S(C)(=O)=O)cc1 (stereo not drawn)
  6%	-3%[46.1 µM]	-17%	-5%	3%[46.1 µM]	1%	.	.
CCCCc1nn2c(=O)cc(COC(=O)c3ccccc3C)nc2s1
  .	.	19%	.	?	.	-4.7%	-16%
O=C(COc1ncnc2c(Cl)cc(Cl)cc12)NC1CCCCCC1
  -6%	-2%	5%	-4%	11%	11%	6.4%	?
O=C(O)c1cc(Cl)ccc1-c1ccc(/C=C/c2cc(C(F)(F)F)[nH]c(=O)n2)o1
  19%	-3%[46.1 µM]	-11%	10%	-16%	18%	.	.
COc1cc(/C=N/Nc2ccnc(=O)[nH]2)ccc1O
  2%	.	4%	4%	.	-1%	.	.
CN(C)S(=O)(=O)c1cc(NC(=O)CN2CCN(c3ccccc3F)CC2)ccc1Cl
  1%	-2%[46.1 µM]	-12%	.	?	-9%	.	.
CCCCn1c(N)c(N(CC(C)C)C(=O)C2CC(=O)N(c3ccccc3C(C)CC)C2)c(=O)[nH]c1=O (stereo not drawn)
  -4%	-20%[46.1 µM]	-18%	.	1%	0%	.	.
Cc1cccc(NC(=O)Cn2cc(C=O)c3ccccc32)c1
  2%	.	?	-1%	.	12%	.	.
